Screens as filed in PubChem BioAssay.
Sfp PPTase inh: inhibitors of Bacillus subtilis Sfp phosphopantetheinyl transferase | actives 3.5% (n = 310,000) | Potency, µM, for the others: max response, negative = inhibition, usual class: inhibitors | Q9F4F7 | Biochemical Sfp PPTase activity, qHTS; active = well fitted inhibition curve with a large enough effect; inconclusive = small, poorly fitted or top-dose-only effect, or another doubt; inactive = no such curve, though single readings can be large or run the other way;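 note: the enzyme is Sfp with the accession as filed and its product quenches rhodamine fluorescence; potency is the fitted concentration of half-maximal effect; 0% = enzyme reaction without inhibitor and -100% = no enzyme wells; top concentration of the series not given in the record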
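Fluorescence-quenching assay with 15 nM Sfp, 5 uM rhodamine-CoA and 12.5 uM BHQ-2-labelled ybbR peptide in pH 7.6 Hepes/MgCl2 buffer. Enzyme was pre-incubated with compound for 15 min at room temperature. Rate was taken from the 30-min fluorescence change (525/598 nm).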
gsp antag: gsp mutant antagonism. gsp-mutant cells, cAMP HTRF, 30 min; control for the full effect not named in the record. Potency, µM (doses to about 76.9 µM), for inactives: at the highest dose activity change, negative = inhibition, most hits filed as inhibitors. actives 0.4% (n = 340,000). AID 624288; active = falling curve of any shape with a large fitted effect; inconclusive = falling curve, mostly with a smaller effect; inactive = flat or rising curve; cell line not stated here;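 note: intracellular cAMP measured with PDE inhibitor Ro 20-1724 present during compound exposure; potency is the fitted concentration of half-maximal effect; % is set by controls: 0 for no effect and ±100 for the full control effect; nearly all actives have a fitted effect of over 65% in size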
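HTRF cAMP measurement after 30 min RT detection following 30 min, 37C compound treatment alongside […] (added as 300 uM solution) in G418-selected cells seeded at 2000/well and grown 16–24 h.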
Menin-MLL FL inh: menin-MLL binding inhibition, fluorescein peptide; Fluorescence polarization, fluorescein-MLL peptide displacement from menin; FP activity change, % at 61.4 µM; 290,000 tested, under 10 active; inconclusive = falling polarisation curve, or a change in total fluorescence; inactive = total fluorescence flat and polarisation flat or rising; no compound was filed as active; the % refers to the polarisation; negative = inhibition;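 note: % of control where 0% means no effect; inhibitors lower the polarisation; unlabelled MLL peptide was the positive control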
ClpP mod: qHTS Assay for Activators of ClpP. actives 1.9% (n = 340,000). Potency, µM (titrated, usually from 57.5 µM), for the others: at the highest dose activity change, negative = active. purified B. subtilis ClpP, FRET peptide cleavage, 20 min. ATP-dependent Clp protease proteolytic subunit (Bacillus subtilis (strain 168)), P80244; active = well fitted falling curve with a large enough effect; inconclusive = small, poorly fitted or top-dose-only effect; inactive = no such curve, though single readings can be large or run the other way; note: potency is the fitted concentration of half-maximal effect; the source files actives as falling curves though it sought activators and does not explain the sign; nearly all actives have a fitted effect of over 65% in size; many hits overshoot -100%
Target sequence (P80244 whole entry, looked up): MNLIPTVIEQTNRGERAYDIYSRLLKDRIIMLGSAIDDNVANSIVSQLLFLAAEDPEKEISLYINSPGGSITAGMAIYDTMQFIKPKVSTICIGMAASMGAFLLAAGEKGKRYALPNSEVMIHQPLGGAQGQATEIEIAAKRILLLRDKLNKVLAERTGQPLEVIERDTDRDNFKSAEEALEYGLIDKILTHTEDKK
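FRET quenching reversal measured ClpP activation: 10 microg/mL B. subtilis ClpP at pH 8 with the FRET-FV decapeptide, read at 430 nm after 320 nm excitation. The 20-min minus 0-min signal was scaled between DMSO/no-enzyme wells and ADEP (5.8 microM final).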
gsp ag: activates gsp, the McCune-Albright syndrome mutation; gsp mutant cells, cAMP HTRF, 30 min; control for the full effect not named in the record; Potency, µM (highest dose often 76.9 µM), inactives show at the highest dose activation (cAMP increase), most hits filed as activators; actives 0.13% (n = 340,000); AID 624287; active = well fitted activation curve with a large enough effect; inconclusive = small, poorly fitted or top-dose-only effect, or another doubt; inactive = no such curve, though single readings can be large or run the other way; cell line not stated here;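 note: phosphodiesterase inhibitor Ro 20-1724 added with compounds to block cAMP breakdown; potency is the fitted concentration of half-maximal effect; nearly all actives have a fitted effect of over 60% in size; about a fifth of the inactives were tested at one dose only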
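Cells in DMEM/10% FBS with G418 were pretreated with compounds in DMSO plus […] (300 uM stock) for 30 min at 37C. cAMP was measured by HTRF (cAMP-d2 plus anti-cAMP antibody-K) after 30 min at room temperature.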
TRPML1 blocker: blocks the human TRPML1 channel | Q9GZU1 | TRPML1-inducible cells, Ca2+ dye fluorescence, FDSS; active compounds read low; inhibition of EC80 agonist-evoked calcium signal | activity change, negative = inhibition, % (test concentration not listed) | actives 0.02% (n = 390,000); in the data active means activity change below about -50%; inconclusive means about -30% to -50%; inactive means above about -30%;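 note: stimulus is agonist 54-4 at its EC80 concentration; % is set by controls: 0 for no effect and ±100 for the full control effect; compound concentration not given in the record; the text of the record puts the active cut at -80%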
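Tet-induced TRPML1-DL cells loaded with Ca8 no-wash calcium dye were read kinetically on FDSS. Compound addition was followed by EC80 agonist 54-4 (4 uM final); inhibition was read over 110 s.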
TRPV1 PAM: human TRPV1 potentiation; TRPV1-expressing cells, Fluo-8 calcium influx, capsaicin EC20 potentiation; host cell line not named in the record; control for the full effect not named in the record; Q8NER1; AID 540277; actives 0.02% (n = 320,000); potentiation, % at 8.33 µM; active means potentiation above 80%; inconclusive means 30% to 80%; inactive means below 30%; note: 0% is about no effect
Target sequence (Q8NER1 whole entry, looked up): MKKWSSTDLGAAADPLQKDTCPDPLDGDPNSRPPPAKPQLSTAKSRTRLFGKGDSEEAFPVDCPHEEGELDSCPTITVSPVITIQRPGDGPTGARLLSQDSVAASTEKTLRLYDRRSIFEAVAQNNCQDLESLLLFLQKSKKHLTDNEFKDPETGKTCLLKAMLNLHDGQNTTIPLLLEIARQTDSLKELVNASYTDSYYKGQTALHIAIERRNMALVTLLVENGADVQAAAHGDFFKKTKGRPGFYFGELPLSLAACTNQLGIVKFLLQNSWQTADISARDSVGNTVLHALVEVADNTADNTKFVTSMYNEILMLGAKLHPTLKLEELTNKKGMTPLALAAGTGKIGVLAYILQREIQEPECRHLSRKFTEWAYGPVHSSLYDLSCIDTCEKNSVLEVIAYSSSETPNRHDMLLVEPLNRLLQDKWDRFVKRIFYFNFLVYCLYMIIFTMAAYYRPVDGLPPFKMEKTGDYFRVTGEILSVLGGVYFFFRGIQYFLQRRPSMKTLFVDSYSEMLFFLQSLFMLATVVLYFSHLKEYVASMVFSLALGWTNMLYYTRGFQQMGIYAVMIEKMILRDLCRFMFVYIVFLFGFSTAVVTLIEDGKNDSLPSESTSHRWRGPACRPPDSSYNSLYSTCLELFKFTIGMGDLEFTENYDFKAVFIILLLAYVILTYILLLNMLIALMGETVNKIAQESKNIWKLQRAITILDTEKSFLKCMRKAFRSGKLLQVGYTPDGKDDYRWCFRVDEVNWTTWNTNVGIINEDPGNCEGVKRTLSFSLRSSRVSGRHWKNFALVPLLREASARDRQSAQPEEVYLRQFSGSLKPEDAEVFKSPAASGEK
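Fluo-8 calcium influx in TRPV1-expressing cells, kinetic read (ex 480/em 520 nm). Compound added and read 3 min for agonist activity, followed by capsaicin at EC20 final and 2 min further read for enhancement.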
An asterisk follows results filed as active; ? = inconclusive; · = not tested or not shown; & = joins results of further samples; [ ] = remark or other dose.

Molecule | Sfp PPTase inh | gsp antag | Menin-MLL FL inh | ClpP mod | gsp ag | TRPML1 blocker | TRPV1 PAM
ClCc1nc2ccccc2n1Cc1ccccc1 | -29% | 6% | ? | -3.9% | 6% | 13 | ?
O=C(Nc1nnc(C2CC2)o1)c1ccc(S(=O)(=O)N2CCc3ccccc3C2)cc1 | 20% | -6% | -0.3 | -0.9% | -51%[inhibitor] | 2 | 7
NC(=S)Nc1ncc(CCN2CCOCC2)c(-c2ccc(F)cc2)n1 | 15% | 3% | -1.6 | · | -1%[15.4 µM] | -15 | 1
COc1ccc(CCNc2oc(-c3ccccc3OC)nc2C#N)cc1 | -6% | -19% | 0.3 | -46% | -18% | -7 | 10
c1ccc2cc3[nH]c(CN4CCCCC4)nc3cc2c1 | 12% | 11% | 1.2 | 4.1% | 2% | -12 | -8
Cc1oc2c(c1C(=O)NCCCC(=O)O)CCCC2 | 1% | 3% | 1.1 | 0.2% | 1% | 9 | -8
CC(C)(C)c1ccc(S(=O)(=O)N2CCC(NC(=O)c3ccco3)CC2)cc1 | 17% | -15% | · | 1.3% | -4%[15.4 µM] | -3 | 14
CCOC(=O)c1cccc(NC(=O)/C=C/c2ccc3c(c2)OCO3)c1 | 79µM* | -1% | 16 | ? | -20% | 39 | -8
CC(C)OC(=O)CCC(=O)Nc1ccc(F)cc1 | 9% | 4% | 1.5 | 0.0% | -1% | 5 | -5
CC(NC(=O)CCl)c1ccccc1Br (stereo not given) | 1% | 4% | 1.0 | · | ? | 11 | -18
O=C(Nc1nccs1)C1CCCN(S(=O)(=O)c2cccc3cccnc23)C1 (stereo not given) | -2% | -5% | 0.3 | -0.2% | -18% | 0 | 14
COc1ccc(-n2nc(C(=O)NCC(=O)NCc3ccc(F)cc3)c3ccccc3c2=O)cc1 | -2% | -19% | -7.0 | · | 13%[15.4 µM] | -10 | -1
COCCNC(=O)NC(=O)CN1CCCc2ccccc21 | 15% | 3% | 0.9 | -3.4% | -51%[inhibitor] | -5 | 9
CCOC(=O)[C@H]1[C@H]2COc3ccc(OC)cc3[C@@H]2N2C(=O)c3ccc(Cl)cc3NC(=O)[C@@]12C | · | -23% | · | 1.5% | -2% | 38 | ?
CCOC(=O)N1CCN(c2c(N3CCN(c4cc(C)ccc4C)CC3)c(=O)c2=O)CC1 | -10% | -4% | -1.3 | 4.1% | -27% | -12 | -11
CN(C)C(CNC(=O)c1cccc(S(=O)(=O)Nc2ccc(Br)cc2)c1)c1ccco1 (stereo not given) | · | -5% | · | · | -9%[15.4 µM] | 1 | -16
O=C(c1ccc(F)cc1F)N1CCN(c2n[nH]c(=O)[nH]c2=O)CC1 | -8% | 8% | 6.3 | -0.9% | -9% | -6 | 13
CC1(OC(=O)CCc2ccccc2)C(=O)C=C2C=C(c3ccsc3)OC=C2C1=O (stereo not given) | 1%&-12% | · | 11&17 | · | · | · | -11
CN1CCCN(c2ccc([N+](=O)[O-])cc2)CC1 | 14% | -17% | 2.8 | 0.8% | 2% | -15 | 11
OCCN1CCN(CC#CCn2c3ccccc3c3ccccc32)CC1 | -16% | 7% | 1.7 | -6.0% | 1% | 14 | 3
COc1cc(-c2nnc(-c3ccc(N4CCOCC4)cc3)o2)cc(OC)c1OC | 21% | 6% | 3.0 | 25µM* | 3% | 5 | -6
COc1cc(Br)c(CCNC(=O)c2ccco2)cc1OC | 19% | -1% | -0.1 | -0.5% | 11% | -9 | 0
COc1ccc(-n2nc3c(c2NC(=O)CCl)CSC3)cc1 | 16% | -11% | -1.0 | · | -19%[15.4 µM] | -20 | 2
COc1ccc(NC(=O)CCNS(=O)(=O)c2ccc3c(c2)c(=O)n(C)c(=O)n3C)cc1OC | 27% | -2% | -1.4 | -1.1% | -19% | -6 | 0
Nc1ccc(-c2cnc(N)c(C(=O)c3cccnc3)n2)cn1 | · | 15% | · | -2.5% | ? | -10 | ·
CCOC(=O)c1sc2cccc(F)c2c1N | ? | 13% | -0.1 | ? | -5% | -10 | -12
Cc1cc(C)c2oc(C(=O)N(Cc3ccccc3)C3CCS(=O)(=O)C3)cc(=O)c2c1 (stereo not given) | 1% | -12% | 7.6 | -0.3% | -10%[15.4 µM] | -11 | 10
C/C(=N\O)c1ccc(Cl)c(Cl)c1 | -15% | 8% | -0.6 | 1.0% | -9%[15.4 µM] | 0 | -11
CCN(C1CCCCC1)S(=O)(=O)c1ccc(S(=O)(=O)NCc2ccncc2)cc1 | 12% | -24% | 3.1 | -0.5% | 12% | 0 | ·
C=C(C)CN(CC)CCC(=O)Nc1ccc(OC)cc1OC | 9% | 8% | 4.7 | -1.2% | 2% | 11 | -23
COc1ccc(C2C(C(=O)Nc3cc(C)on3)c3ccccc3C(=O)N2C)cc1 (stereo not given) | 21% | -4% | 0.1 | -0.9% | -20% | -3 | 23
CCOC(=O)c1ncccc1NC(=O)CC(=O)Nc1cccnc1C(=O)OCC | · | 2% | · | 3.9% | ? | 12 | ·
C#Cc1ccc([C@@H]2C=C(C(=O)NCc3nc4ccccc4[nH]3)O[C@H](OCC)[C@H]2CCCO)cc1 | 22% | -31% | -1.1 | -2.2% | ? | -4 | 5
Cc1c(C(=O)NCc2ccc(S(N)(=O)=O)cc2)oc2ccc(Cl)cc12 | 13% | 2% | -1.1 | · | 1%[15.4 µM] | -4 | -1
COc1ccc(CCNC(=O)C2Cc3ccccc3C(=O)O2)cc1 (stereo not given) | -3% | 6% | -0.3 | · | 0%[15.4 µM] | 11 | -7
CC12COC3(C(=O)NCCc4ccccc4)CC1CCC32C (stereo not given) | -8% | -3% | 4.6 | -1.5% | -8% | -5 | -35
COc1ccc2nnc(-c3ccccc3)n2n1 | 21% | 16% | 3.0 | ? | 16µM* | 10 | 1
CC(=O)N(CCC(Cc1ccccc1)c1ccc2c(c1)OCO2)Cc1ccc(Cl)cc1 (stereo not given) | ? | -7% | -3.4 | -4.1% | -46%[inhibitor] | 5 | -22
COC(=O)c1c(NC(=O)c2c(-c3ccccc3Cl)noc2C)sc2c1CCC2 | 28µM* | -8% | 4.7 | 32µM* | 24% | 51 | -2
CC(=O)N/C(=N\OCc1ccc(Br)cc1)c1nonc1NC(C)=O | 3% | 7% | -1.8 | -5.3% | 22% | -9 | 21
Cc1ccc(NC(=S)N2CCN(C(=O)C3CCCO3)CC2)c(C)c1 (stereo not given) | 14% | 5% | 2.9 | 1.0% | -31%[inhibitor] | 0 | ·
C/C(=N\NC(=O)c1ccc(Br)cc1)c1cccc(NC(=O)c2cccnc2)c1 | 1% | -5% | 0.8 | -0.1% | ? | 2 | -4
O=C(COC(=O)Cc1cccs1)Nc1ccccc1 | -27% | 2% | -2.3 | -3.4% | 9% | -5 | -22
O=C1CCC([N+](=O)[O-])C(c2ccccc2Cl)N1 (stereo not given) | 20% | 2% | 1.0 | 1.3% | 3% | 0 | -1
COc1ccc(NC(=O)CCNC(=O)Cn2cnc3sc4c(c3c2=O)CCCC4)cc1OC | 7% | 2% | -6.6 | · | 22% | 51 | 4
CCN(C(=O)CN1CCC(C)CC1)c1c(N)n(Cc2ccccc2)c(=O)[nH]c1=O | · | 3% | · | -3.0% | ? | -1 | 5
Cc1cc(NC(=O)c2ccccc2Cl)no1 | 11% | 0% | 1.4 | 0.1% | -25% | 17 | 8
CCC1(c2ccc(F)cc2)NC(=O)N(CC(=O)N2CCOCC2)C1=O (stereo not given) | 14% | 11% | -0.6 | -2.0% | -1% | 5 | 10
O=C(COC(=O)Cn1cnc2ccccc2c1=O)Nc1ccc2c(c1)OCO2 | 13% | 5% | -0.5 | · | ? | 0 | -6
CCOc1ccccc1N(CC(=O)NCCSCc1ccco1)S(=O)(=O)c1ccccc1 | -26% | -15% | 1.2 | 0.5% | -15% | 3 | -8
O=C(N/N=C/c1cc(Cl)ccc1O)c1ccncc1 | 1% | -3% | ? | 1.0% | ? | · | -20
COc1ccc2nc(/C=N/NC(=O)[C@@H]3CCCN3C(=O)OC(C)(C)C)ccc2c1 | 89µM* | -8% | 0.2 | · | 3%[15.4 µM] | 0 | 9
COc1cc(NC(=O)c2ccccc2NS(=O)(=O)c2ccc(Cl)s2)cc(OC)c1 | 1% | ? | -3.9 | 1.2% | -5%[15.4 µM] | -7 | 1
Cc1cc(NC(=O)CCC(=O)N(CC2CCCO2)C(C(=O)NC2CCCC2)c2cccnc2)no1 (stereo not given) | 9% | 3% | -0.3 | 4.9% | -2% | 23 | 15
COc1ccccc1CN1C[C@@H]2C[C@@H](c3[nH]c4c(C)cccc4c3C)N3CCC[C@@]23C1=O | 2% | 17% | -1.1 | -5.9% | -48%[inhibitor] | -20 | 3
C=CCn1c(CNC(=O)c2cccs2)nnc1SCc1ccc(Cl)cc1Cl | 5% | -1% | 3.6 | -3.7% | 6% | -15 | 4
CC(C)NS(=O)(=O)c1ccc(NC(=O)Cc2ccsc2)cc1 | -2% | 23% | 5.5 | 1.0% | 5% | 0 | 8
CS(=O)(=O)N1CCN(C(=O)c2ccccc2)C1 | -2% | 11% | -2.0 | -1.1% | 3% | -5 | 5
Cc1ccc(N=Cc2c(C)[nH]n(-c3ccccc3)c2=O)nc1 | 11% | -12% | 2.5 | · | -10%[15.4 µM] | -5 | 3
Cc1cccc(C(=O)N2CCCC(N3CCN(Cc4ccc5c(c4)OCO5)CC3)C2)n1 (stereo not given) | 8% | 10% | -1.8 | -2.0% | 6% | -7 | -3
CN(CCCn1c(=S)[nH]c2ncccc2c1=O)Cc1ccccc1 | -6% | 8% | 5.3 | 4.8% | 5% | -2 | 15
Cc1nc(=S)c2ccccc2[nH]1 | -22% | 8% | -2.1 | 0.2% | ? | 7 | 9
